# PABP polyA inh: PABP poly(A) RNA binding inhibitors, primary screen, biochemical, fluorescence polarization, uHTS; Polyadenylate-binding protein 1 (Homo sapiens), P11940; inhibition, % at 35 µM; actives 1% (n = 290,000);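 active = 50% or more with normal probe brightness, or confirmed in later tests; inconclusive = above 50% with abnormal brightness, or retests that disagree; inactive = below 50% or failed in later tests; about a fifth of its hits are not listed in these tables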;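 also: calls also rest on retests at 20 µM and on dose response follow-up; controls were probe without protein and protein plus probe with vehicle; some compounds called inactive have numbers as strong as hits; many hits fall short of the cut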
# Target sequence (P11940 whole entry, looked up): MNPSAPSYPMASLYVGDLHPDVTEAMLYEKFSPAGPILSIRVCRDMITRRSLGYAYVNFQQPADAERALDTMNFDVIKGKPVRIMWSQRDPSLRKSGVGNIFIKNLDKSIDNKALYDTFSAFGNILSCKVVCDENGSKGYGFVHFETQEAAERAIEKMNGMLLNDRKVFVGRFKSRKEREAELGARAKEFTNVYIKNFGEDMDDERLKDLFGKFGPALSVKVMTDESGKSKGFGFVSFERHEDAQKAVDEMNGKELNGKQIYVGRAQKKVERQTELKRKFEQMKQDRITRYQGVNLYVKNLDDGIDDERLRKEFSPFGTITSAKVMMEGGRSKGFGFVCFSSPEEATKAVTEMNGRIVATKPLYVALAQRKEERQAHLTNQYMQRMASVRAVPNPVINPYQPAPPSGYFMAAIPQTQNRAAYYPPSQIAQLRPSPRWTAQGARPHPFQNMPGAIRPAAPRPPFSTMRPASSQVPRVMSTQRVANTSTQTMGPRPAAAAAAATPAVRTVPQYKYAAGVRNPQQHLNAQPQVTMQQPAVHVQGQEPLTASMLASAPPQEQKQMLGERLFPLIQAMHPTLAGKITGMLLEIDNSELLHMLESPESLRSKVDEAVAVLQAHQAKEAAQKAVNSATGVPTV
# MT1-MMP act inh: blockers of MT1-MMP proenzyme processing, primary screen, HT1080 RFP-PRO-GFP cells, GFP/RFP fluorescence; GFP/RFP ratio fluorescence, overnight; percent of plate control window, DMSO zero; Matrix metalloproteinase-14 (Homo sapiens), P50281; GFP/RFP ratio change, % at 20 µM; actives 0.061% (n = 360,000);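 active = GFP/RFP ratio change of at least 30% with cell ATP level not reduced by more than half and red fluorescence within 50% of control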; also: strong numbers were not always called active
#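 Test system: HT1080 RFP-PRO-GFP cells; Benchmarks: DMSO and RFP-L50D-GFP cell wells; Timing: cells overnight before dosing, compound overnight, 37 °C, 5% CO2; Compound: one 20 µM compound dose with 1% DMSO; Read-out: GFP/RFP fluorescence ratio.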
# Env fusion inh: inhibitors of HIV-1 Env-driven cell-cell fusion, primary screen, HeLa-JRFL effector, CEM21 target cells, luciferase. inhibition, % at 12.3 µM. actives 1.1% (n = 360,000). AID 651610, 2012;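 active = mean replicate inhibition score of at least 50 and every replicate individually at or above 50; inconclusive = only one of the two criteria met; inactive = mean below 50 and not all replicates reaching 50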;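 also: 0% = plate neutral controls and 100% = maraviroc near 300 nM; one replicate is shown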
# eIF4H inh: human eIF4H binding inhibitors, primary screen, translation initiation inhibitor project, biochemical, uHTS, fluorescence polarization | Eukaryotic translation initiation factor 4H (Homo sapiens), Q15056 | eIF4H fluorescence polarization binding assay | inhibition, % at 35 µM | actives 0.94% (n = 290,000) | AID 2012, 2009;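 active = 50% or more with normal probe brightness, or confirmed in later tests; inconclusive = above 50% with abnormal brightness, or retests that disagree; inactive = below 50% or failed in later tests; about a fifth of its hits are not listed in these tables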;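 also: calls also rest on retests at 20 µM and on dose response follow-up; 0% = protein and probe with vehicle and 100% = probe without protein; strong numbers were not always called active; many hits fall short of the cut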
# CSC inhib: cancer stem cell viability inhibitors, primary screen, luminescence | actives 1.1% (n = 300,000) | cancer stem cell-like cells viability | inhibition, % at 7.5 µM;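 active = mean at 75% or more and at least half the replicates too; inconclusive = mean and replicates disagree; tested in HMLE shEcad cells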;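 also: 0% = median of negative and 100% = median of positive control wells; the first replicate is given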
# Yeast UUG start: modulators of yeast start codon fidelity, primary screen, whole organism, S. cerevisiae, single point, plate reader; S. cerevisiae UUG-firefly luciferase reporter, luminescence/redox ratio; activity score, % at 18.7 µM; actives 0.13% (n = 350,000); AID 602363, 2012;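 active = replicate mean at a twofold rise or more, about +100% in these data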;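 also: firefly luciferase made from a UUG start codon reports start codon fidelity; reporter light over untreated wells divided by growth signal over untreated wells; some hits fall short of that in this replicate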
# Rce1 inhib: yeast Rce1p protease inhibitors, primary screen, biochemical, fluorescence, cell-free homogeneous; yeast membranes, quenched prenylated peptide cleavage fluorescence; actives 0.27% (n = 290,000); CAAX prenyl protease 2 (Saccharomyces cerevisiae (strain ATCC 204508 / S288c)), Q03530; calls only; AID 2563, 2010;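 active = fall in fluorescence gain of 50% or more versus controls, with final raw signal at or below 3038400; inconclusive = same 50% fall but final raw signal above 3038400; inactive = fall in fluorescence gain under 50%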;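 also: plate controls were neutral control wells for no effect and wells lacking membranes for full effect; tested at 10 µM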
# Target sequence (Q03530 whole entry, looked up): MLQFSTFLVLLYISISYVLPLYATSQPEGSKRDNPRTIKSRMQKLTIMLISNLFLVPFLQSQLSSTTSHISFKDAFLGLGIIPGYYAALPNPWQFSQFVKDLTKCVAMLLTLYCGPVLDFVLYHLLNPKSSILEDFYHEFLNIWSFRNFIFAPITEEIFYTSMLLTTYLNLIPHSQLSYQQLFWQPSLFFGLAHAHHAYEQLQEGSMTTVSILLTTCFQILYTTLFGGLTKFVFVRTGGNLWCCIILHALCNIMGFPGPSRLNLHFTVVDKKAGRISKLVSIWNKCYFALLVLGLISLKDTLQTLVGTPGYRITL
# eIF4H inh retest: further read-out of eIF4H inh, marked with its call; inhibition, %; compound at 20 µM; confirmation average;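 mean of two retest wells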
# PABP polyA inh retest: second read-out of PABP polyA inh, no call of its own (marks repeat the call); inhibition, %; compound at 20 µM; confirmation repeats;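 mean of two retest wells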
# MT1-MMP act inh RFP: second read-out of MT1-MMP act inh, no call of its own (marks repeat the call); RFP signal change, %; measured here: RFP expression control read;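 0 = vehicle wells; hits needed this value within 50% of zero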
# The depositor's hits bear a star; i = inactive; ? = inconclusive; · = no result given.
SMILES,PABP polyA inh,MT1-MMP act inh,MT1-MMP act inh RFP,Env fusion inh,eIF4H inh,CSC inhib,Yeast UUG start,Rce1 inhib,others
COC(=O)CNC(=O)C(C)NC(=O)CNC(=O)OCc1ccccc1 (stereo unspecified),-1,-1,7,·,-1,-11,·,i,
CCOc1ccc(-c2c(C(=O)N/N=C/c3ccncc3)nnn2-c2nonc2N)cc1,-1,1,2,-4,1,-2,-23,i,
O=C1[C@H]2CCCC[C@H]2C(=O)N1CCCCN1CCN(c2nsc3ccccc23)CC1,·,4,-4,-19,·,?,-2,i,
CC(C)(C)NC(=S)Nc1ccc(Br)cc1,2,3,1,4,-2,5,-15,i,
O=C(CCC1CCCC1)N1CCN(C(=O)C2CC2)CC1,-6,1,4,-8,2,-6,-1,i,
COc1cc2c(cc1OC)CN(c1ccc([N+](=O)[O-])cc1Cl)CC2,-7,8,-2,-3,-2,45,-2,i,
Nc1nnc(Cc2ccc(Cl)cc2Cl)s1,4,-1,2,-14,-11,-17,-11,i,
O=C(c1ccccc1)N1CCN(Cc2cccc(Oc3ccccc3)c2)CC1,4,-4,-10,8,-6,-2,·,i,
O=C(Cn1nc(-c2ccc(Cl)cc2)c2ccccc2c1=O)NN1CCOCC1,-4,0,-2,-8,-1,-16,-14,i,
CC/C(=N\NC(=O)c1c(-c2ccccc2)noc1C)c1ccc(C)o1,4,-2,4,32,-3,1,1,i,
CC(C)C(NC(=O)c1ccc(Cl)cc1)C(=O)O (stereo unspecified),5,2,4,-3,-3,-5,-11,i,
COc1ccc(CNC(=O)C(C)N2C(=O)COc3ccc(C)cc32)c(OC)c1 (stereo unspecified),6,3,2,6,-1,1,-4,i,
COc1ccc(CCNC(=O)CCCn2ncn3c(cc4occc43)c2=O)c(OC)c1,-1,-2,1,0,-4,8,·,i,
Cn1cnnc1SCCC(=O)Nc1ccc(Cl)cc1,-2,-2,4,-27,-2,-7,-24,i,
Cc1ccc(NC(=O)c2ccc(CN3CC(=O)N4CCCCC4C3=O)cc2)c(C)c1 (stereo unspecified),-2,4,6,25,-9,-3,3,i,
CC12COC3(C(=O)Nc4ccc(F)cc4)CC1CCC32C (stereo unspecified),-7,2,2,-2,16,-2,0,i,
O=C(NC1(O)C(=O)c2ccccc2C1=O)c1ccc(C(F)(F)F)cc1,-9,2,4,5,5,1,1,i,
CCN(c1ccccc1)S(=O)(=O)c1ccc(Cl)c(C(=O)OCC(=O)c2[nH]c(C)c(C(C)=O)c2C)c1,1,-16,-13,-36,-3,-13,-13,i,
COCCNC(=S)N1CCc2cc(OC)c(OC)cc2C1COc1ccc(F)cc1 (stereo unspecified),13,5,4,-1,-9,-10,-2,i,
COc1ccc(OC)c(-c2nc(C(=O)NCC3CCCO3)cc3c2[nH]c2ccccc23)c1 (stereo unspecified),16,-3,-2,·,12,-14,-18,i,
CCC(CC)NC(=O)CON=C1c2ccccc2-c2ccccc21,0,-11,-6,11,-8,4,-27,i,
O=C(COC(=O)c1cc([N+](=O)[O-])ccc1N1CCCC1)Nc1ccccc1OC(F)F,·,3,-7,20,·,·,-11,·,
Cn1c(=O)c2c(nc(NN=C3CCCCC3)n2C)n(C)c1=O,11,6,3,3,9,-2,·,i,
CCC(C)c1ccc(NC(=O)C2CCN(c3ncccn3)CC2)cc1 (stereo unspecified),2,-1,-1,-60,1,39,-6,i,
CN1/C(=C\C(=O)c2ccco2)C(C)(C)c2ccccc21,?,62,69,·,?,36,-1,i,
CCOCCSc1nc2c(c(=O)[nH]c(=O)n2C)n1CCCc1ccccc1,-3,-2,2,-40,-3,13,-20,i,
CCOC(=O)CN1C(=O)S/C(=C/c2cccc([N+](=O)[O-])c2O)C1=O,16,1,6,14,-12,19,·,i,
Cc1ccc(N/C=C/C(=O)c2cccs2)cc1C,-3,-1,3,-314,-11,-8,-65,i,
CCOC(=O)c1sc(=NC(=O)c2ccc(C)c(C)c2)n(C)c1C,2,3,-5,-25,-4,-8,·,i,
CCOc1ccc(CN2C(=O)c3ccccc3C2C(=O)NC(C)CC)cc1OC (stereo unspecified),-5,3,5,-10,-10,-5,-3,i,
CCN1CCN(CCn2c(=S)[nH]c3cc4c(cc3c2=O)OCO4)CC1,3,4,1,-181,-8,-5,-6,i,
O=C1CN(C(=O)c2ccc(Cl)c(S(=O)(=O)N3CCc4ccccc43)c2)c2ccccc2N1,-2,-6,-8,9,-3,36,-10,i,
C/C(=N\NC(=O)c1cc2ccccc2cc1O)c1ccc(C)o1,0,-1,0,-3,9,2,-15,·,
Cc1ccc(C2(C(F)(F)F)N=C3Sc4cc(C)cc(C)c4N3C(=O)N2)cc1 (stereo unspecified),-4,-3,-5,i,0,1,7,·,
Cc1nc(N2CCN(S(=O)(=O)c3cccs3)CC2)c2c(-c3ccccc3)c(C)sc2n1,·,5,6,7,·,·,-14,·,
Cc1ccc(-c2nc(C3CCCN(S(=O)(=O)c4ccc(C(F)(F)F)cc4)C3)no2)cc1 (stereo unspecified),8,2,4,·,-4,4,-13,i,
CC(=O)Nc1ccc(NC(=O)CSc2nccn2Cc2ccc(Cl)cc2)cc1,-8,3,-10,·,-3,11,7,i,
Cc1onc(-c2ccccc2Cl)c1C(=O)NNC(=O)c1cccc(F)c1,-1,2,3,7,-1,-5,-10,i,
CCCN(CCC)CCNC(=O)CN1C(=O)COc2ccc(S(=O)(=O)N3CCOCC3)cc21,0,1,4,8,4,·,-11,i,
CC(=O)N1c2ccc(S(=O)(=O)NCCC(=O)NCc3ccc(F)cc3)cc2CC1C (stereo unspecified),10,1,-2,-7,3,-15,-27,i,
CCCOc1ccc(C2/C(=C(/O)c3ccc(F)cc3)C(=O)C(=O)N2CCCN(C)C)cc1 (stereo unspecified),-3,-4,-1,-6,-7,4,-9,i,
CCc1ccc(Oc2nnnn2-c2ccc(C(N)=O)cc2)cc1,-7,1,-3,28,-3,2,-14,i,
O=C1CSC(=S)N1c1cccnc1,7,18,16,1,4,3,-12,i,
CCc1ccc(/C(C)=N/NC(=O)c2c[nH]c3ccccc23)s1,0,5,-3,-11,-10,-5,-27,·,
O=C(OCc1cc(=O)n2cc(Br)ccc2n1)C1COc2ccccc2O1 (stereo unspecified),7,-10,1,-18,1,1,-2,i,
COc1ccc(OC)c(C(=O)NC(CC(N)=O)c2ccc(NCCN3CCOCC3)c([N+](=O)[O-])c2)c1 (stereo unspecified),-2,7,0,-5,6,-18,-19,i,
COc1ccccc1-c1n[nH]c(=S)n1N,-6,-5,-4,6,4,-11,-26,i,
Cc1nc2cc(NC(=O)NCCC3=CCCCC3)ccc2o1,1,1,-2,·,-2,-11,-7,i,
O=C(CCNC(=O)c1ccc([N+](=O)[O-])cc1)Nc1ccc(F)c(F)c1F,9,6,7,7,-4,-5,-25,i,
C/C(CC(=O)Nc1ccc(Cl)c(Cl)c1)=N\NC(N)=S,-3,-2,-6,-21,-4,4,-14,i,
COc1ccc(CC(N)c2csc(Nc3ccc(C(C)=O)cc3)n2)cc1 (stereo unspecified),·,-13,-11,-8,·,·,-10,·,
Cc1oc(-c2cccc(Cl)c2)nc1CN1CCCC(C(=O)NCCCN2CCOCC2)C1 (stereo unspecified),2,10,-1,-6,5,-12,-15,i,
Cc1ccc(NC2CCCN(C(=O)CCc3scnc3C)C2)cc1C (stereo unspecified),6,-3,0,-2,6,9,-10,·,
COCCOC(=O)c1[nH]c2c(c1C)C(=O)CC(c1ccco1)C2 (stereo unspecified),37,8,-8,-293,84*,54,-9,i,eIF4H inh retest=77*;PABP polyA inh retest=46
CCCCC(=O)Nc1ccc(NC(=O)CCCC)nc1,-5,-2,3,·,0,-3,-13,·,
NC(=O)c1ccsc1NC(=O)c1ccc(N2CCCC2=O)cc1,-17,-1,6,-50,52,35,·,i,eIF4H inh retest=3;PABP polyA inh retest=-5
Cc1ccccc1CS(=O)(=O)c1cnc2ccccc2n1,3,-5,-5,·,1,-16,-16,i,
CCN(Cc1nc2cc(OC)c(OC)cc2c(=O)[nH]1)C(=O)c1ccc(S(=O)(=O)N(C)C)cc1,-4,3,-6,-50,-5,-8,5,i,
CCN(C(=O)CN1C(=O)NC2(CCc3ccccc32)C1=O)C1CCCCC1 (stereo unspecified),·,4,1,12,·,-7,-12,i,
O=C(N/N=C(\CC(=O)c1cccs1)C(F)(F)F)c1cccnc1,3,-5,-4,0,-3,-13,·,i,

# No new results follow: 13 of the compounds above.
SMILES,PABP polyA inh,MT1-MMP act inh,MT1-MMP act inh RFP,Env fusion inh,eIF4H inh,CSC inhib,Yeast UUG start,Rce1 inhib,others
COc1ccc(OC)c(C(=O)NC(CC(N)=O)c2ccc(NCCN3CCOCC3)c([N+](=O)[O-])c2)c1 (stereo unspecified),-2,7,0,-5,6,-18,-19,i,
COc1ccccc1-c1n[nH]c(=S)n1N,-6,-5,-4,6,4,-11,-26,i,
Cc1nc2cc(NC(=O)NCCC3=CCCCC3)ccc2o1,1,1,-2,·,-2,-11,-7,i,
O=C(CCNC(=O)c1ccc([N+](=O)[O-])cc1)Nc1ccc(F)c(F)c1F,9,6,7,7,-4,-5,-25,i,
C/C(CC(=O)Nc1ccc(Cl)c(Cl)c1)=N\NC(N)=S,-3,-2,-6,-21,-4,4,-14,i,
COc1ccc(CC(N)c2csc(Nc3ccc(C(C)=O)cc3)n2)cc1 (stereo unspecified),·,-13,-11,-8,·,·,-10,·,
Cc1oc(-c2cccc(Cl)c2)nc1CN1CCCC(C(=O)NCCCN2CCOCC2)C1 (stereo unspecified),2,10,-1,-6,5,-12,-15,i,
Cc1ccc(NC2CCCN(C(=O)CCc3scnc3C)C2)cc1C (stereo unspecified),6,-3,0,-2,6,9,-10,·,
COCCOC(=O)c1[nH]c2c(c1C)C(=O)CC(c1ccco1)C2 (stereo unspecified),37,8,-8,-293,84*,54,-9,i,eIF4H inh retest=77*;PABP polyA inh retest=46
CCCCC(=O)Nc1ccc(NC(=O)CCCC)nc1,-5,-2,3,·,0,-3,-13,·,
NC(=O)c1ccsc1NC(=O)c1ccc(N2CCCC2=O)cc1,-17,-1,6,-50,52,35,·,i,eIF4H inh retest=3;PABP polyA inh retest=-5
Cc1ccccc1CS(=O)(=O)c1cnc2ccccc2n1,3,-5,-5,·,1,-16,-16,i,
CCN(Cc1nc2cc(OC)c(OC)cc2c(=O)[nH]1)C(=O)c1ccc(S(=O)(=O)N(C)C)cc1,-4,3,-6,-50,-5,-8,5,i,

# Bioassay records from PubChem.

# Some of the compounds tested; the hit share may differ from the screen's.
